High-throughput results (PubChem BioAssay)
VCAM-1 down: suppression of endothelial VCAM-1 upregulation – cell-based, plate reader, pooled HUVEC, TNFa stimulus (AID 454). HUVEC TNFa-induced VCAM-1 surface immunofluorescence, plate reader; numbers were filed only for top-ranked candidate wells. inhibition, % at 5 µM. actives 0.2% (n = 10,000);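 active = compound among top-ranked inhibitors of TNF-induced VCAM-1 adhesion protein staining, with the hit upheld by image or statistical review; inactive = the rest, including hits rejected on review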;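 also: 0% = TNFa with vehicle and 100% = cells without TNFa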
FPRL1 binder: ligands of human FPRL1, also counter-screen for FPR ligands; P25090; actives 0.3% (n = 24,000); FPRL1-expressing cells, fluorescent ligand binding inhibition, flow cytometry; inhibition, %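 (tested at 6.7 µM)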;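 also: 0% = buffer alone and 100% = receptor blocker peptide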
FPR binder: human FPR ligand, with FPRL1 counter-screen. inhibition, %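 (tested at 6.7 µM)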. P21462. actives 0.74% (n = 24,000). FPR-expressing cells, fluorescent ligand binding, flow cytometry. AID 440;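 also: 0% = buffer wells and 100% = receptor blocker peptide wells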
Target sequence (P21462 whole entry, looked up): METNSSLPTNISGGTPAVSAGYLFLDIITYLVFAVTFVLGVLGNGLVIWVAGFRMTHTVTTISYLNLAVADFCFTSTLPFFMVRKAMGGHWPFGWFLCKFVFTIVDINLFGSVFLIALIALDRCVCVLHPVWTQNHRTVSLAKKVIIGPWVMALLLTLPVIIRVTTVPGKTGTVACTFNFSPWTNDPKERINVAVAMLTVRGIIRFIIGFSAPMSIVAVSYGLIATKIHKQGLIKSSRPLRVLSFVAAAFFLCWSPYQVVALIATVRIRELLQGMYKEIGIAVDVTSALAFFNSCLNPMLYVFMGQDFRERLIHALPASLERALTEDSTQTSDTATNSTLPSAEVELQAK
VCAM-1 imaging: suppression of endothelial VCAM-1 upregulation – imaging, high-content imaging, pooled HUVEC, TNFa stimulus (AID 456) | HUVEC TNFa-induced VCAM-1 surface expression, immunofluorescence imaging; numbers were filed only for top-ranked candidate wells | inhibition, % at 5 µM, or IC50 in µM where a hit was titrated | actives 0.2% (n = 10,000);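 active = top tenth filtered wells with inhibition above zero that passed visual or statistical confirmation; inactive = the rest, including hits rejected on review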;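 also: 0% = stimulated vehicle wells and 100% = unstimulated cells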
VCAM-1 up imaging: enhancers of VCAM-1 display on endothelial cells, imaging, high-content imaging, pooled HUVEC, TNFa stimulus (AID 457) | Pooled HUVEC, TNFa-induced VCAM-1 immunofluorescence imaging; hits of this screen are not shown here | calls only | actives 0.2% (n = 10,000);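 active = a top-ranked rise in VCAM-1 staining upheld on image or statistical review; inactive = the rest, including candidates rejected on review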;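 also: compounds tested at 5 µM in the well; cells exposed to compound for 24 hours before fixing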
* marks the source's active call; other numbers are inactive results; i = inactive; . = no result given.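 The calls were made as follows, unless noted: active = mean above 30%; inconclusive = self-fluorescent; inactive = the rest.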 An excerpt; rates above refer to the full screens.

smiles | VCAM-1 down | FPRL1 binder | FPR binder | VCAM-1 imaging | VCAM-1 up imaging
COC(=O)c1ccc(-n2nnnc2SCc2nn[nH]n2)cc1 | i | 9 | -1 | i | i
Cc1ccc(-n2ncc3c(=O)n(CC(=O)N4CCCc5ccccc54)cnc32)cc1C | i | 8 | 12 | i | i
C=CCNS(=O)(=O)c1ccc2nsnc2c1 | i | 0 | 15 | i | i
COc1ccc(OC)c(C2N(c3ccc(Cl)cc3)C(=O)C3CCCN32)c1 (configuration not stated) | . | 0 | -3 | . | .
CC1CCN(C(C(=O)Nc2ccc3c(c2)OCO3)c2ccccc2)CC1 (configuration not stated) | . | -5 | 2 | . | .
CN(C)c1ccc(NC(=O)Cn2ncn3c(cc4ccccc43)c2=O)cc1 | . | -2 | -3 | . | .
CCCCOC(=O)Cn1c(=O)oc2ccc(C)cc21 | i | 2 | -2 | i | i
O=S(c1ccsc1)c1ccsc1 | i | 2 | -4 | i | i

Copied from the list.
Reading for `CN(C)c1ccc(NC(=O)Cn2ncn3c(cc4ccccc43)c2=O)cc1` in FPR binder: -3
Reading for `C=CCNS(=O)(=O)c1ccc2nsnc2c1` in FPRL1 binder: 0

Next records:
smiles | VCAM-1 down | FPRL1 binder | FPR binder | VCAM-1 imaging | VCAM-1 up imaging
COc1ccc(OC)c(NC(=O)C2CCCN(S(=O)(=O)c3c(C)noc3C)C2)c1 (configuration not stated) | . | 2 | 2 | . | .
CC12C(=O)N(c3ccccn3)C(=O)C1C1C=CC2C1 (configuration not stated) | . | 1 | -8 | . | .
CCN(CC)C(=O)C1=C(C)NC(=O)NC1c1c(F)cccc1Cl (configuration not stated) | i | -1 | -2 | i | i
CCS(=O)(=O)N1CCC(C(=O)NCc2ccco2)CC1 | . | 4 | -2 | . | .
CCOC(=O)N1CCN(S(=O)(=O)c2ccc3[nH]c(=O)sc3c2)CC1 | . | 1 | 2 | . | .
COC(=O)c1ccc(CSc2nc3c(cnn3-c3ccc(C)cc3)c(=O)[nH]2)o1 | . | 6 | 9 | . | .
CS(=O)(=O)N1CCc2cc(C(=O)N3CCCCC3)ccc21 | i | 1 | 4 | i | i
CC(=O)Nc1ccc(S(=O)(=O)NCC(C)NS(=O)(=O)c2ccc(NC(C)=O)cc2)cc1 (configuration not stated) | i | 1 | -10 | i | i

Quoted at random: 6 records from the list.
smiles | VCAM-1 down | FPRL1 binder | FPR binder | VCAM-1 imaging | VCAM-1 up imaging
CCN(CC)C(=O)C1=C(C)NC(=O)NC1c1c(F)cccc1Cl (configuration not stated) | i | -1 | -2 | i | i
CCS(=O)(=O)N1CCC(C(=O)NCc2ccco2)CC1 | . | 4 | -2 | . | .
CCOC(=O)N1CCN(S(=O)(=O)c2ccc3[nH]c(=O)sc3c2)CC1 | . | 1 | 2 | . | .
CC(=O)Nc1ccc(S(=O)(=O)NCC(C)NS(=O)(=O)c2ccc(NC(C)=O)cc2)cc1 (configuration not stated) | i | 1 | -10 | i | i
CC12C(=O)N(c3ccccn3)C(=O)C1C1C=CC2C1 (configuration not stated) | . | 1 | -8 | . | .
COC(=O)c1ccc(CSc2nc3c(cnn3-c3ccc(C)cc3)c(=O)[nH]2)o1 | . | 6 | 9 | . | .

(next part)
smiles | VCAM-1 down | FPRL1 binder | FPR binder | VCAM-1 imaging | VCAM-1 up imaging
Nc1ccc(S(=O)(=O)c2ccc(N)cc2)cc1 | i | 2 | -7 | i | i
O=C(C1CCN(S(=O)(=O)c2cccc3nsnc23)CC1)N1CCc2ccccc2C1 | . | -4 | 11 | . | .
O=C(Cn1cnc2c(oc3ccccc32)c1=O)N1CCN(c2ccccc2)CC1 | i | -4 | 4 | i | i
O=C1CN(C(=O)COC(=O)C23CC4CC(CC(O)(C4)C2)C3)c2ccccc2N1 | i | 0 | -4 | i | i
Cc1c(C)c2cc(Cl)c(O)c(CN3CCCCC3)c2oc1=O | i | 50* | 38* | i | i

Another view of two compounds above:
Values in the order: VCAM-1 down | FPRL1 binder | FPR binder | VCAM-1 imaging | VCAM-1 up imaging
O=C(Cn1cnc2c(oc3ccccc32)c1=O)N1CCN(c2ccccc2)CC1
  i | -4 | 4 | i | i
O=C1CN(C(=O)COC(=O)C23CC4CC(CC(O)(C4)C2)C3)c2ccccc2N1
  i | 0 | -4 | i | i
